RE007 growth inh = less growth of the S. pombe RE007 Vpr strain; S. pombe RE007 Vpr strain, BacTiter-Glo ATP luminescence, 24 h; control for the full effect not named in the record; Potency, µM (doses to about 92.2 µM), for the others: top-dose activity change, negative = less growth; hit rate 0.21% among 360,000; AID 651644; active = well fitted falling curve with a large enough effect; inconclusive = small, poorly fitted or top-dose-only effect; inactive = no such curve, though single readings can be large or run the other way;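 further: on the % scale 0 is the no-effect control and ±100 the full control effect; nearly all actives have a fitted effect of over 50% in size; the assay follows cell death caused by Vpr and the record does not say whether a fall means rescue or toxicity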
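Fission yeast RE007 carrying one integrated HIV-1 vpr copy, seeded at OD 0.01 in PMG+AL medium with 23 nL pinned compound. Grown 24 h at 30 degrees; viability read by BacTiter-Glo luminescence after 5 min.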
LASV entry inh = inhibitors of Lassa virus binding or cell entry; Lassa virus pseudotype entry inhibition, cell reporter; control for the full effect not named in the record; Potency, µM (highest dose often 37.9 µM), inactives show at the highest dose activity change, negative = inhibition, most hits filed as inhibitors; hit rate 1.2% among 300,000; AID 540256; active means well fitted inhibition curve with a large enough effect; inconclusive means small, poorly fitted or top-dose-only effect, or effect the other way; inactive means flat fitted curve, though single readings scatter; tested in HEK293 cells; further: on the % scale 0 is the no-effect control and ±100 the full control effect; nearly all actives have a fitted effect of over 50% in size; luciferase read-out
NS1 function inh = influenza NS1 inhibition; S. cerevisiae slowed by influenza A NS1, growth recovery by OD600; Potency, µM (highest dose often 46.1 µM), inactives show at the top dose activity, positive = more growth; hit rate 0.4% among 270,000; AID 2326; active means well fitted rising curve with a large enough effect; inconclusive means small, poorly fitted or top-dose-only effect; inactive means no such curve, though single readings can be large or run the other way; further: nearly all actives have a fitted effect of over 50% in size
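S. cerevisiae expressing influenza A NS1, grown in glucose, washed, then diluted 1:100 into pH 6.0 -URA galactose medium with 23 nl compound. Growth recovery read as OD600; NS1-free strain serves as control.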
Cruzain inh noDet = cruzain (T. cruzi) inhibition without detergent; P25779; purified cruzain, Z-FR-AMC fluorescence, no detergent; Potency, µM, for the others: max response, negative = inhibition, actives largely listed as inhibitors; hit rate 2.3% among 200,000; AID 1476;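 further: plate controls were enzyme without inhibitor for no effect and buffer without enzyme for full effect; nearly all actives have a fitted effect of over 40% in size; top concentration of the series not given in the record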
Target sequence (P25779 123-467 limits assumed): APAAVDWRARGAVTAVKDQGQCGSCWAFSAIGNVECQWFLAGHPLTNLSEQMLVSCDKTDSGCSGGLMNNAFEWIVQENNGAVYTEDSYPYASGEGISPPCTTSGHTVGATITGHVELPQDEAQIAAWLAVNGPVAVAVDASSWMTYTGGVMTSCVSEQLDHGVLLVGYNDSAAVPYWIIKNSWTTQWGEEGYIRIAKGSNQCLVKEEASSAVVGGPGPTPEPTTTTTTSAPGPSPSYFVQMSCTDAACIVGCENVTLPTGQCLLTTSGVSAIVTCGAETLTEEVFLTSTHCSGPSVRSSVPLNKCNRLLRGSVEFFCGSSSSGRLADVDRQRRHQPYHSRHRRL
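Purified cruzain at 1.5 nM, pre-incubated 15 min with compound at room temperature in 100 mM sodium acetate pH 5.5, 5 mM DTT, 0.00005% Triton X-100. Reaction started with 2 uM Z-FR-AMC; AMC fluorescence increase over 60 s gives rate.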
StopGo reporter = lowers the luciferase signal of an FMDV 2A StopGo reporter; AID 1159524; human cells with a luciferase reporter of 2A StopGo recoding; control for the full effect not named in the record; Potency, µM (titrated, usually from 57.9 µM), without a hit: at the top dose signal change, negative = less light; hit rate 1.2% among 410,000; active = well fitted falling curve with a large enough effect; inconclusive = small, poorly fitted or top-dose-only effect; inactive = no such curve, though single readings can be large or run the other way; tested in HEK293T cells; further: on the % scale 0 is the no-effect control and ±100 the full control effect; nearly all actives have a fitted effect of over 45% in size; luciferase light after 4 h
SARS PLP yeast = SARS-CoV PLP inhibition in yeast; S. cerevisiae expressing SARS-CoV PLpro, growth rescue; control for the full effect not named in the record; Potency, µM (highest dose often 32.9 µM), without a hit: top-dose activity, positive = growth rescue; hit rate 0.19% among 330,000; AID 485353; active means well fitted rising curve with a large enough effect; inconclusive means small, poorly fitted or top-dose-only effect; inactive means no such curve, though single readings can be large or run the other way; further: 0% is about no effect; nearly all actives have a fitted effect of over 55% in size; growth read by luminescence after 48 h
MARV entry inh = blocks Marburg virus binding to or entry into cells | Marburg virus pseudotyped entry inhibition, cell reporter; control for the full effect not named in the record; about a third of the inactives were read at about 46 µM | hit rate 1.8% among 300,000 | Potency, µM (series often up to 37.8 µM), inactives show at the highest dose activity change, negative = inhibition, hits mostly inhibitors; active = well fitted inhibition curve with a large enough effect; inconclusive = small, poorly fitted or top-dose-only effect, or effect the other way; inactive = flat fitted curve, though single readings scatter; tested in HEK293 cells; about a fifth of its hits are not listed in these tables; further: on the % scale 0 is the no-effect control and ±100 the full control effect; luciferase read-out
Cruzain Triton = blocks cruzain activity in presence of Triton detergent; Potency, µM, for the others: max response, negative = inhibition, most hits filed as inhibitors; AID 1478; purified cruzain, Z-FR-AMC fluorescence, 0.01% Triton; hit rate 0.43% among 200,000;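 further: plate controls were neutral wells for no effect and buffer without enzyme for full effect; nearly all actives have a fitted effect of over 40% in size; top concentration of the series not given in the record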
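15 min RT preincubation of 1.5 nM cruzain with compound, then 2 uM Z-FR-AMC added; kinetic AMC fluorescence, 60 s delta. Triton X-100 0.01%, pH 5.5.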
An asterisk follows results filed as active; ? = inconclusive; / = not tested or not shown; & = joins results of further samples; [ ] = dose if it differs, or a comment. Unless noted, the call rests on the fitted dose curve; in most records, active means well fitted curve in the direction sought with a large enough effect; inconclusive means small, poorly fitted or top-dose-only effect, or another doubt; inactive means no such curve, though single readings can be large; an effect the other way counts as inactive or inconclusive. Potency means the concentration at half of the fitted maximal effect.

SMILES	RE007 growth inh	LASV entry inh	NS1 function inh	Cruzain inh noDet	StopGo reporter	SARS PLP yeast	MARV entry inh	Cruzain Triton
Cc1ccc(-c2[nH]ncc2/C=C(\C#N)C(=O)NC2CCCCC2)cc1	18%	?	14%	1%	?	-13%	-28%[46.1 µM]	-5.5%
COc1cccc(/C=C2\SC(=S)N(CCCC(=O)N3CCCCC3CCO)C2=O)c1 (stereo not given)	-1%	/	-34%	/	-18%	-4%	/	/
CN=C1c2cc3cc(OC)ccc3n2CCN1C	-6%	9%	7%	-17%	-20%	1%	7%	-3.8%
O=C(Nc1ccccn1)Nc1ccccc1[N+](=O)[O-]	9%	18%[46.1 µM]	-7%	/	17%	-2%	20%[46.1 µM]	/
C=CCOc1ccc(C2c3c(oc4ccc(C)cc4c3=O)C(=O)N2CCCN2CCOCC2)cc1 (stereo not given)	/	?	/	8%	-15%	/	?	-4.1%
Cc1ccc(NC(=O)C2CCCN(S(=O)(=O)c3cnc[nH]3)C2)cc1F (stereo not given)	-8%	/	3%	-1%	-10%	-2%	/	3.4%
O=C(NCCCN1CCOCC1)C1CC(=O)N(CCc2ccccc2)C1 (stereo not given)	17%	2%	-6%	3%	-17%	3%	4%	10%
COc1ccccc1N(CC(=O)NCCc1ccccc1)S(C)(=O)=O	-1%	8%	9%	7%	0%	3%	10%	6.5%
CCCCOc1ccc(C(=O)NCCc2csc(-c3cccc(F)c3)n2)cc1	/	1%[46.1 µM]	/	?	?	/	/	-12%
CC(C)(C)n1nnnc1C(c1ccc(Cl)cc1)N1CCSCC1 (stereo not given)	2%	-10%	5%	-18%	-4%	19%	-28%	-3.0%
O=C(Cn1ccn(-c2cccc(Cl)c2)c(=O)c1=O)NCCc1ccccc1	/	-3%[46.1 µM]	/	-8%	4%	/	/	-1.5%
COc1ccccc1N1C(=N)S/C(=C\c2ccc(-c3ccccc3C(=O)O)o2)C1=O	33%	-24%	?	-13%	-11%	15%	9%	-12%
CCOC(=O)CSc1nc(-c2ccc(OC)cc2)ns1	-9%	/	-63%	-9%	0%	-3%	14%	-5.2%
CC(C)C(=O)N(Cc1ccccc1)S(=O)(=O)c1ccc2c(c1)oc(=O)n2C	10%	28%[46.1 µM]	-2%	-11%	-1%&-10%	0%	-1%&-1%[46.1 µM]	-0.2%
O=C(COc1ccccc1F)N1c2ccccc2CCc2ccccc21	1%	4%	-6%	-2%	?	8%	?	-4.4%
O=C(O)c1ccc(Cl)c(S(=O)(=O)Nc2ccccc2N2CCOCC2)c1	-19%	1%	/	/	-3%	0%	28%[46.1 µM]	/
CC(NCC(=O)Nc1ccccc1C(=O)NC1CC1)c1ccc(F)cc1F (stereo not given)	11%	-1%	/	/	-8%	7%	20%	/
O=[N+]([O-])c1ccccc1S(=O)(=O)NCc1ccc(F)cc1	-14%	10%	-4%	/	56%[activator]	0%	18%[46.1 µM]	/
O=C(c1cc2nc(-c3ccco3)cc(C(F)(F)F)n2n1)N1CCN(Cc2ccccc2)CC1	8%	?	-16%	-4%	10%	0%	?	-3.6%
COCc1nnc(NC(=O)CCc2ccccc2)s1	0%	11%	-3%	3%	3%	-2%	15%[46.1 µM]	0.4%
O=C1N(Cc2cccnc2)C[C@@H]2C[C@@H](c3ccccc3C#Cc3ccccc3)N3CCC[C@@]123	-14%	?	0%	/	65%[activator]	-1%	?	/
CC(C)(C)c1ccc(NC(=O)c2ccc(=O)[nH]n2)cc1	36%	?	-3%	/	-3%	0%	?	/
O=C(Nc1ccccc1N1CCCCC1)c1cccs1	6%	3%	-26%	2%	-22%	-8%	-1%	-7.3%
O=c1cc(-c2ccccc2F)oc2ccccc12	63µM*	-6%	-7%	-9%	39%[activator]	-29%	17%	-8.2%
Cc1ccc(C)c(NC(=O)c2cc(=O)c3ccccc3o2)c1	3%	25%	-34%	5%	32%[activator]	-37%	?	-1.6%

Among those listed so far, these have a nitro group on carbon.
SMILES	RE007 growth inh	LASV entry inh	NS1 function inh	Cruzain inh noDet	StopGo reporter	SARS PLP yeast	MARV entry inh	Cruzain Triton
O=C(Nc1ccccn1)Nc1ccccc1[N+](=O)[O-]	9%	18%[46.1 µM]	-7%	/	17%	-2%	20%[46.1 µM]	/
O=[N+]([O-])c1ccccc1S(=O)(=O)NCc1ccc(F)cc1	-14%	10%	-4%	/	56%[activator]	0%	18%[46.1 µM]	/

(list continues)
SMILES	RE007 growth inh	LASV entry inh	NS1 function inh	Cruzain inh noDet	StopGo reporter	SARS PLP yeast	MARV entry inh	Cruzain Triton
Cc1[nH]n(-c2ccccc2)c(=O)c1N=Nc1cccc(C(=O)O)c1	-30%	?	-7%	/	?	-2%	?	/
CCCCC(c1nnnn1CCOC)N1CCN(Cc2ccccc2)CC1 (stereo not given)	2%	20%	-17%	8%	0%	13%	6%[46.1 µM]	0.4%
CCCCCn1c(SCC(=O)OC)nc2c1c(=O)[nH]c(=O)n2C	0%	/	-3%	-4%	-6%	6%	/	5.7%
O=C(O)c1csc(-c2cccs2)n1	9%	21%[46.1 µM]	/	/	13%	0%	11%[46.1 µM]	/
COc1cccc(C2CC(c3ccccc3)Nc3nc(N)nn32)c1 (stereo not given)	-2%	/	3%	/	-10%	0%	/	/
O=C(NCCc1ccccc1)c1cc(-c2ccncc2)nc2ccc(S(=O)(=O)N3CCOCC3)cc12	-9%	/	5%	/	8%	0%	/	/
Nc1cccc(NC(=O)CN2CCOCC2)c1	3%	?	-4%	/	-1%	0%	?	/
Nc1ccccc1SCc1cn2cccnc2n1	-12%	/	-14%	-10%	27%	-1%	/	0.9%
O=C(COc1ccc(S(=O)(=O)N2CCCC2)cc1[N+](=O)[O-])N1CCCC1	0%	12%	/	/	-23%	-1%	?	/
O=C(Nc1nc2cc3c(cc2s1)OCCO3)C1CCCCC1	-18%	10µM*	/	/	?	2%	?	/
O=C(CCN1CCN(c2ccccc2)CC1)NNC(=O)Cc1ccc(Br)cc1	-11%	-7%	/	/	3%	3%	?	/
COc1ccc(-c2oc3cccnc3c2/C=C/c2ccc(OC)c(OC)c2)cc1	10%	/	?	/	-9%	2%	/	/
O=C(NCc1ccc(F)cc1)C1Cc2ccccc2CN1C(=O)c1ccco1 (stereo not given)	2%	-24%	/	/	2%	12%	2%	/
CC(=O)NCCc1nc2cc(NC(=O)c3ccccc3Cl)ccc2n1C	9%	?	-2%	/	43%[activator]	12%	29%[46.1 µM]	/
Cc1ccc(NC(=S)c2ccccc2)cc1	-7%	6%	-2%	-5%	15%	-35%	?	-4.5%
Cc1ccc(C(=O)Nc2ccc3c(c2)OCO3)cc1	-13%	?	-53%	-21%	-51%	-19%	?	1.4%
COCCN(C(=S)Nc1ccc(C)cc1)C(C)c1cccnc1 (stereo not given)	8%	-5%	/	/	-29%	0%	18%[46.1 µM]	/
Cc1c(Br)c([N+](=O)[O-])nn1CC(=O)Nc1ccccn1	13%	1%[46.1 µM]	9%	/	-2%	-1%	9%[46.1 µM]	/
CCOc1ccccc1C(=O)NCCc1cnc[nH]1	3%	/	-2%	/	-19%	-2%	/	/
COc1ccc(N2C(=O)CS(=O)(=O)C23C(=O)N(Cc2c(F)cccc2Cl)c2ccccc23)cc1 (stereo not given)	/	?	/	7.9µM*	?	/	/	-3.2%
Cc1cccc(Sc2c([N+](=O)[O-])ncn2C)n1	-12%	-3%	2%	-3%	-12%	0%	-22%	3.5%
CC(C)CCN1CCN(Cc2cccn2-c2nccs2)CC1CCO (stereo not given)	0%	/	-1%	/	-19%	1%	/	/
Cc1ccc(SCc2ccc(C(=O)Nc3ccccc3Br)cc2)cc1	20%	-2%	-5%	-1%	-11%	-19%	3%	-2.1%
CN(C)Cc1nc2ccccc2c(=O)n1Cc1nc(C(C)(C)C)cs1	2%	-18%	-9%	20%	-8%	7%	?	-2.8%
Cc1c(C)c2c(OCC(=O)NCC(=O)NCC(=O)O)cc3c(c2oc1=O)CCC(C)(C)O3	10%	13%[46.1 µM]	2%	/	-9%	0%	?	/
Next structures follow:
SMILES	RE007 growth inh	LASV entry inh	NS1 function inh	Cruzain inh noDet	StopGo reporter	SARS PLP yeast	MARV entry inh	Cruzain Triton
O=C(Nc1ccc2oc(-c3ccccc3)nc2c1)c1ccc2ccccc2c1	/	10%[46.1 µM]	/	6%	-2%	/	/	-0.7%
CCCCOC(=O)c1ccc(NC(=O)c2sc3nc(C)cc(C)c3c2N)cc1	/	?	/	9%	?	/	?	-1.0%
CC(C)C[C@H](NC(=O)OC(C)(C)C)C(=O)N[C@@H](CO)[C@H](O)[C@@H]1C[C@@H]1C(=O)NC1CC1	4%	/	4%	/	-3%	2%	/	/
N#Cc1ccc(C(=O)OCC(=O)NC(=O)NC2CCCCC2)cc1	0%	0%	/	/	-15%	-6%	-4%	/
COc1ccc(CCNC(=O)COC(=O)c2ccc([N+](=O)[O-])o2)cc1	-24%	4%	/	/	-18%	3%	-19%	/
O=C(ONC1=NCCCCC1)c1cccc([N+](=O)[O-])c1	5%	?	-34%	/	-26%	-24%	?	/
O=C(CSc1ccsc1[N+](=O)[O-])NCCc1ccc(Cl)cc1	-24%	22%	1%	9%	1%	1%	11%	2.2%
Cc1ccc(S(=O)(=O)Nc2ccccc2CNc2ncc(Br)cc2Br)cc1	-10%	?	0%	?	-7%	-5%	?	-0.8%
Cn1ccsc1=NC(=O)c1ccc([N+](=O)[O-])o1	-19%	/	4%	/	-8%	0%	/	/
Oc1ccccc1-c1nc2ccc(Cl)cn2c1Nc1ccc2c(c1)OCCO2	/	27%[46.1 µM]	/	-4%	-7%	/	12%[46.1 µM]	-2.7%
CCC1(C)C2(C#N)C(N)=NC(OC)(OC)C12C#N (stereo not given)	8%	4%	-9%	-4%	-15%	5%	3%	-0.7%
Cc1ccc2[nH]c(=O)c(CN(CCCN3CCOCC3)C(=O)Nc3ccc(Cl)cc3)cc2c1	6%	-29%	-10%	/	-17%	4%	?	/
O=C(Nc1ccc2nn(-c3ccccc3)nc2c1)c1ccc(Br)o1	6%	?	4%	?	5%	-2%	?	-1.2%
CCOC(=O)CNc1ccc(OC(F)(F)F)cc1	0%	7%	5%	/	6%	0%	-8%	/

Screens as filed in PubChem BioAssay.
